# High-throughput results from PubChem BioAssay.
# Vif TR-FRET – HIV-1 Vif–A3G interaction blockers – biochemical, TR-FRET, GST-Vif 1-94, biotin-A3G peptide, dose response retest, primary screen (AID 1117319); inhibition, %, or IC50 in µM where a hit was titrated; 260,000 compounds, 0.57% hits; TR-FRET GST-Vif / biotin-A3G peptide binding; higher % means a stronger effect; test concentration not given here; strong numbers were not always called active;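 active means above the screen mean plus three standard deviations and confirmed in dose response; inconclusive means results disagree or hit not tested in dose response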;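 further: Vif residues 1-94 fused to GST binding biotinylated APOBEC3G peptide 110-148; 0% = full assay without inhibitor and 100% = GST in place of GST-Vif; retest series ran down from 100 µM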
# B2AR ag – agonists of human beta-2 adrenergic receptor inducing internalization; P07550; Am2.2-beta2AR cells, FAP receptor internalization, flow cytometry; reference of the scale not given here; response, % (no concentration beside the values); 340,000 compounds, 0.43% hits;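 active means response above a set limit, near 3 SD of response in nonfluorescent compounds, cut at about 42% in these data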;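 further: stock transfer was 100 nL into about 11 µL; a reference agonist was the positive control; negative values mostly stem from fluorescent compounds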
# Target sequence (P07550 whole entry, looked up): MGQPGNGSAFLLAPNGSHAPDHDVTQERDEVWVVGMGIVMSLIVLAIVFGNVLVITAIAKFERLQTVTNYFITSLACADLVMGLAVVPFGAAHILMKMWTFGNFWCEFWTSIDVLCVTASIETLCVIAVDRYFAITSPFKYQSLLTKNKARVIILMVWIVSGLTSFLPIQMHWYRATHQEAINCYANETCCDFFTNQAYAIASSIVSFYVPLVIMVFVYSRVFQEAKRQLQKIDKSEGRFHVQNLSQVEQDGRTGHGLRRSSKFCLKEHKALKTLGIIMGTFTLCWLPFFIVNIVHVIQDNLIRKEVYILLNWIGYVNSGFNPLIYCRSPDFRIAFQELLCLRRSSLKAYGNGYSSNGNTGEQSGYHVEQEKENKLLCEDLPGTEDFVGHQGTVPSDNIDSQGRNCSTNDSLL
# HNF4A DNA FP – change in binding of human HNF4 alpha to DNA; AID 1224865; HNF4a-FITC DNA binding, fluorescence polarization, 1 h; activity change, % at 10 µM; 360,000 compounds, 0.3% hits; P41235; in the data active means activity change above about 30%, passing the limit was not always enough;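 further: controls were the assay level and a saturating level of protein; the project sought stronger binding though the title names inhibitors; some compounds called inactive have numbers as strong as hits; positive values seem to mean higher polarization but the record does not say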
# Target sequence (P41235 whole entry, looked up): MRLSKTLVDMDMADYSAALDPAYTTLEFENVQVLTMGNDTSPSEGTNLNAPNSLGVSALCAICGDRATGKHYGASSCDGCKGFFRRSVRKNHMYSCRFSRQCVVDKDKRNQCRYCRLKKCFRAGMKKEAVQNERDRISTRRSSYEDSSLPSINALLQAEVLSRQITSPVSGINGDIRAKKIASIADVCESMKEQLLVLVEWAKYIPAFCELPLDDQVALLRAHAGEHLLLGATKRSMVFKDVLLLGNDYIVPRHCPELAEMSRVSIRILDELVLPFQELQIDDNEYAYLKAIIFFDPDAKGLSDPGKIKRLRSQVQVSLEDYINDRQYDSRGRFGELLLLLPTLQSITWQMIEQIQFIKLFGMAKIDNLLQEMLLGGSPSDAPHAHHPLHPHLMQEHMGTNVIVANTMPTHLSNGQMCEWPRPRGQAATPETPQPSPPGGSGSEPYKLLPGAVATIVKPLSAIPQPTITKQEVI
# A1 inh – inhibitors of the anti-apoptotic protein A1, read as caspase activation | caspase activation, % (concentration not given with the values) | 330,000 compounds, 0.066% hits | MEF A1-2A-BIM cells, Caspase-Glo 3/7 luminescence, 3 h; percent of clofoctol response, vehicle zero;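 active means over half of replicate activation scores above 10%, or exactly half above 10 with the replicate mean above 10; inconclusive means replicate mean below 10 yet half the replicates above 10; inactive means over half of replicates below 10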;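 further: wells of about 30 µL received 50 nL stock; many hits fall short of the cut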
# Ecoli growth – E. coli growth inhibition | Escherichia coli growth, OD600, 23 h; hits give low values | OD600 absorbance (no concentration beside the values) | 330,000 compounds, 0.21% hits | AID 1053175;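 active means OD600 absorbance below the run mean of sample wells minus 3.6 SD, in any replicate, cut at about 0.56 in these data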;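 further: stock transfer was 300 nL into about 60 µL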
# UCH37 inh – blocks the human deubiquitinase UCH37. inhibition, % (test concentration not listed). 330,000 compounds, 0.33% hits. purified proteasome/UCH37, Ub-AMC cleavage fluorescence;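 active means mean of two replicates above 20%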;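 further: 0% = compound-free wells with enzyme and 100% = wells lacking proteasome; stock transfer was 100 nL into about 20 µL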
#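 Material: human UCH37 enzyme supplied as purified proteasome complex. Measure: % inhibition of Ub-AMC cleavage fluorescence. Medium: pH 7.4 Tris-HCl (50 mM) with ovalbumin, ATP-MgCl2, DTT. Times: 30 min preincubation with enzyme, 25 min cleavage at room temperature. Detection: AMC fluorescence intensity at 355/460 nm.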
# LANA-H2A inh – blocks KSHV LANA binding to histone H2A/H2B; Q9QR71; cell-free LANA-H2A/H2B peptide, fluorescence polarization; inhibition, % (no concentration beside the values); 320,000 compounds, 0.6% hits; AID 2629; in the data active means inhibition mostly above about 10%, no sharp cut-off; inactive means mostly below about 6.7%;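 further: stock transfer was 7.5 nL into about 10 µL; 0% = median of vehicle wells and 100% = median of positive control wells; one replicate is shown; the record names a cut of 25% in any replicate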
# Numbers without * were called inactive; ? = inconclusive; . = no result given. Rows are unselected; about 2.1% have a hit in one of these screens.
SMILES,Vif TR-FRET,B2AR ag,HNF4A DNA FP,A1 inh,Ecoli growth,UCH37 inh,LANA-H2A inh
Cc1ccc(/C=C/C(=O)NCc2cccs2)o1,11%,6,-3.0,0.5,0.69,3.7,-0.8
Cc1cc(OCC(=O)NCc2ccccn2)cc(C)c1Br,-7%,-10,-0.3,-0.2,0.67,1.2,1.8
COc1ccc(-n2c(-c3ccc(Cl)cc3)c[n+]3c2CCc2ccccc2-3)cc1,2%,-10,-0.3,0.9,0.67,5.8,-1.3
O=C(CSc1ccccc1)Nc1ccncc1,13%,-1,-0.7,0.3,0.68,2.8,-6.3
O=C(NNc1ncc(C(F)(F)F)cc1Cl)c1c(Cl)cccc1Cl,2%,-10,3.0,0.5,0.67,3.0,0.2
COc1ccc2c(c1)CC/C(=C\Nc1ccc3c(c1)OCO3)C2=O,?,15,45*,-2.9,0.69,0.7,-13
Cc1noc(C)c1CCC(=O)N1CCCC(CCC(=O)NCc2ccc(F)c(F)c2)C1 (stereo not drawn),7%,2,-2.6,-0.4,0.69,2.6,-1.1
Cc1ccc(NC(=O)c2ccc(OC(F)F)cc2)cc1S(=O)(=O)N(C)C,-1%,3,5.1,1.1,0.69,0.6,-1.1
Cc1cc(C)cc(NC(=S)N2CCC(NC(=O)C3CCCCC3)CC2)c1,.,7,-0.7,0.7,0.7,1.6,-3.8
O=[N+]([O-])c1ccc(/C=C/c2ccc3ccccc3n2)cc1,18%,-8,-2.6,-5.8,0.67,3.2,-0.1
COCCN1C(=O)N(c2cccc(C)c2)C(=O)C1CC(=O)Nc1ccc(OC)cc1 (stereo not drawn),.,-2,-0.1,-0.6,0.69,4.5,-1.1
Fc1ccc(CSc2nnc(-c3cccnc3)o2)cc1,-1%,-12,-0.4,-1.5,0.64,-1.5,0.7
C[C@H](CO)N1C[C@H](C)[C@@H](CN(C)Cc2ccccc2)Oc2ccc(NC(=O)Cn3cnnn3)cc2C1=O,6%,1,1.3,0.6,0.71,-3.6,.
CCN(CC)CCNC(=O)c1ccc(NC(=O)c2cccc(S(=O)(=O)N3CCc4ccccc43)c2)cc1,-1%,13,3.8,.,0.67,4.6,.
Cc1nn(-c2ccccc2)c(N2CCCC2)c1/C=N/NC(=O)c1cc(-c2ccccc2)nc2ccccc12,.,4,1.4,1.0,.,.,-0.5
CC1OC2(OC1C)C(=O)Nc1ccccc12 (stereo not drawn),1%,-7,4.6,0.0,0.73,1.6,4.7
COc1ccc(S(=O)(=O)NCc2ccccn2)cc1NC(=O)c1ccc(Cl)cc1,-9%,-7,1.4,0.9,0.7,0.2,-2.9
CC1CCN(CCCNC(=O)c2ccc(CS(=O)(=O)Cc3ccccc3F)o2)CC1,9%,-1,3.1,.,0.77,-2.6,.
O=P(CCO)(c1ccccc1)c1ccccc1,-6%,-6,2.3,-0.5,0.69,0.3,0.1
CCOc1c(Br)cc(CNCc2cccs2)cc1OC,10%,4,3.3,0.7,0.65,1.2,.
COc1cc(C(=O)COC(=O)C2CCCCC2)cc(OC)c1OC,-6%,-6,-0.7,-0.3,0.68,0.0,1.7
CCCn1c2c(c(=N)c3c1CCC3)CCCC2,6%,7,1.1,0.3,0.68,2.5,-7.7
Cc1cnc(C(=O)OCC(=O)Nc2ccccc2[N+](=O)[O-])cn1,9%,0,1.8,0.1,0.7,3.9,-0.7
CN(C)C(=S)Nc1ccc(Cc2ccncc2)cc1,-4%,-9,0.8,0.6,0.66,0.2,-7.4
O=C(CSc1ccccc1)NCc1ccc(F)cc1,?,2,1.1,-0.9,0.7,1.1,4.0
COc1ccc2[nH]c3c(c2c1)CCN1C(=O)N([C@@H](C)C(=O)NC2CCCCC2C)C(=O)[C@]31C (stereo partly drawn),.,6,5.1,0.2,0.74,-1.8,1.4
Cc1ccc(C)c(Cn2nnc(C(=O)Nc3ccc4c(c3)OCCO4)c2N)c1,-7%,-4,4.9,0.4,0.66,-1.3,1.0
O=C(NCCc1ccccc1F)C1CCCN1S(=O)(=O)c1ccccc1 (stereo not drawn),-6%,7,1.2,-0.4,0.7,0.4,1.3
O=[N+]([O-])c1ccc2c(c1)-c1ccccc1C2=NO,-4%,9,7.3,.,.,.,.
O=C(Nc1ccc(N2CCCC2)c(Cl)c1)c1ccc2c(c1)OCCO2,32%,6,7.7,-3.4,0.69,2.1,4.4
N/C(=N\OC(=O)c1cccc2ccccc12)c1ccncc1,4%,-1,-0.6,-0.1,0.66,1.6,3.2
CC(NCC(O)COc1ccc(S(=O)(=O)N2CCOCC2)cc1)c1ccccc1 (stereo not drawn),3%,-2,5.2,-0.4,0.7,3.3,8.5
O=C(Nc1c[nH]c(=O)[nH]c1=O)c1ccccc1Br,.,1,2.4,-2.5,0.7,4.7,0.7
CN=C1NN=C(c2cc(C)n(-c3ccc(Cl)cc3)c2C)CS1,8%,-3,6.1,0.2,0.67,3.0,1.6
Cc1ccc(C)n1-c1nnc(N2CCC(C(=O)N3CCN(C)CC3)CC2)s1,-2%,4,1.0,1.1,0.75,3.3,-7.4
O=C(NCCc1c[nH]c2ccccc12)C1CCN(S(=O)(=O)c2ccccc2)CC1,0%,1,-2.8,0.2,0.71,4.2,1.2
Cc1cccc(N(CC(=O)NCc2ccccc2)C(=O)CCC(=O)Nc2nccs2)c1,-2%,6,-0.6,-0.6,0.67,2.6,2.2
CCOC(=O)Cn1nc(C)n(-c2c(C)cccc2C)c1=O,3%,-1,2.4,-0.6,0.71,3.9,0.3
Cc1ccccc1C(=O)Nc1cc(S(=O)(=O)N2CCOCC2)ccc1N1CCN(C)CC1,-19%,-12,-0.9,0.6,0.68,2.1,0.8
COc1cc(Cc2nccc3cc(OC)c(OC)cc23)c(S(=O)(=O)O)cc1OC,.,4,-0.1,-1.0,0.71,1.4,-5.5
CC1CC(C)CN(CCCNC(=O)C2CCCN(c3ncnc4c3nc3n4CCCCC3)C2)C1 (stereo not drawn),.,-15,2.4,0.5,0.69,6.5,3.9
O=C(c1cccc(N2C(=O)C3C4C=CC(C4)C3C2=O)c1)N1CCN(c2ccccc2F)CC1 (stereo not drawn),-6%,0,2.2,-0.4,0.71,2.2,5.0
COc1ccccc1S(=O)(=O)Nc1ccc2nc(C)sc2c1,.,1,-2.4,-0.1,0.68,1.6,2.5
CC1=CC2=NC(=O)/C(=C\c3cccn3CCOc3ccccc3C)C(=N)N2O1,-3%,.,2.0,0.0,0.7,2.6,0.8
CN(C)c1oc(COc2ccccc2F)nc1C#N,7%,-3,-3.9,-0.6,0.73,3.8,-0.3
S=C(Nc1cccc(Cl)c1)N1CCN(c2ccccn2)CC1,.,0,3.1,0.4,0.67,3.7,-1.2
O=C(c1ccco1)N1CCN(C(=O)C2CC(c3ccccc3F)=NO2)CC1 (stereo not drawn),4%,-10,0.2,0.7,0.68,-1.0,2.4
CN(C)CCCN(C(=O)c1ccc(S(=O)(=O)N2CCCC2)cc1)c1nc2c(F)cc(F)cc2s1,3%,2,-1.6,0.2,0.61,-1.4,0.8
O=C(CCc1ccc(S(=O)(=O)N2CCOCC2)cc1)Nc1nccs1,8%,-1,0.7,-0.1,0.69,3.9,3.8
O=C1NC(c2ccccc2)=C(c2ccccc2)C1=O,.,-10,0.8,0.1,0.69,7.1,2.3

# Later entries:
SMILES,Vif TR-FRET,B2AR ag,HNF4A DNA FP,A1 inh,Ecoli growth,UCH37 inh,LANA-H2A inh
CCOC(=O)c1[nH]c2ccc(OC)cc2c1NC(=O)CN1CCc2ccccc2C1,1%,17,1.8,0.6,0.7,-79,-92
CCc1ccc(NC(=O)c2ccnc(C(C)(C)C)c2)cc1,22%,2,-2.1,0.3,0.71,2.6,-7.7
Cc1ccc(/C=C/S(=O)(=O)NCC(=O)OCC(=O)Nc2ccc(C(N)=O)cc2)cc1,1%,8,2.6,-0.3,0.71,-0.1,2.6
COc1ccc(CCNc2ccc(C(CC(N)=O)NC(=O)Cc3cccc4ccccc34)cc2[N+](=O)[O-])cc1 (stereo not drawn),.,7,33,-0.3,0.63,3.0,0.3
COc1cccc(CN2CCNC(=O)C2CC(=O)NCC2CCOCC2)c1 (stereo not drawn),0%,2,-0.2,.,0.7,-6.1,.
Cc1ccc(CSc2nnc(-c3cccc(S(=O)(=O)N4CCOCC4)c3)n2CC(C)C)cc1,-1%,6,-0.3,0.6,0.69,7.1,-6.5
CCN(CC)C(=O)Cn1cc(S(=O)(=O)CC(=O)Nc2cc(C)on2)c2ccccc21,-2%,5,0.1,0.6,0.74,2.4,-1.2
COc1ccc(N2CCN(C(=O)c3ccccc3NC(=O)C3=C(C)OCCS3)CC2)cc1,10%,1,-0.9,-0.3,0.65,-0.1,5.9
C#CCOCCOCCOCCNc1nc(N2CCN(C(=O)CCCCCCCCCCNC(=O)Cn3cc(CCCCCN)nn3)CC2)nc(N2CCN(C(=O)CCCCCCCCCCNC(=O)[C@@H](CCC(=O)O)n3cc(CCCCCN)nn3)CC2)n1,.,13,5.0,1.0,.,0.4,-10
CC(=O)Nc1ccccc1C(=O)C(=O)Nc1cccc(F)c1,.,3,0.2,-0.1,0.72,1.1,4.3
Cc1cc(C)c(NC(=O)c2oc3ccccc3c2COc2ccccc2)c(C)c1,.,2,-2.0,0.8,0.7,1.1,-2.7
CCc1ccc(OCCNc2cc(N3CCNC(C)C3)ccc2[N+](=O)[O-])cc1 (stereo not drawn),.,27,2.9,2.0,0.64,12,3.4
CN(C(=O)C1CCCN1S(=O)(=O)c1ccc(Cl)cc1)c1ccccc1 (stereo not drawn),7%,-2,-0.9,0.9,0.71,0.8,1.9
Cc1ccc(N(CC(=O)NC2CCCCC2)S(=O)(=O)c2cccs2)cc1,.,5,-0.5,0.4,0.73,-1.5,1.4
Cc1ccc(-c2noc(CSc3nnc(-c4ccncc4)n3-c3ccc(F)cc3)n2)cc1,-11%,6,-3.3,-0.1,0.66,0.0,1.1
Cn1c(C(=O)NC2CC2)cc(=O)n(C)c1=O,1%,4,0.9,0.3,0.69,0.2,1.5
Fc1ccc(/C=N/Nc2ncnc3nc[nH]c23)cc1F,28%,6,1.3,-5.4,.,.,0.6
CCN(CC(=O)Nc1ccc(NC(C)=O)cc1)C(=O)c1ccc2ccccc2c1,8%,0,0.3,1.9,0.62,3.3,0.9
COC(=O)c1sc(NC(=O)COc2ccccc2C)nc1C,.,3,-4.2,0.7,0.73,3.7,4.2
O=C(Oc1cccc(O)c1)C1CCCCC1,-13%,.,.,-0.7,.,.,-6.8
Oc1cccnc1Sc1cccc(C(F)(F)F)c1,.,-5,4.5,-0.6,0.7,4.9,-0.8
O=C(NCc1cccs1)C1CCCN(S(=O)(=O)c2cccc3cccnc23)C1 (stereo not drawn),-2%,-18,2.4,0.1,0.59,2.2,0.2
O=C(Cc1ccccc1[N+](=O)[O-])NCCSCc1c(F)cccc1Cl,-7%,-8,-2.5,0.5,0.71,2.9,-2.7

# Single records, from the list above. Order of values: Vif TR-FRET, B2AR ag, HNF4A DNA FP, A1 inh, Ecoli growth, UCH37 inh, LANA-H2A inh
# Cc1ccc(C)n1-c1nnc(N2CCC(C(=O)N3CCN(C)CC3)CC2)s1 in the list: -2%, 4, 1.0, 1.1, 0.75, 3.3, -7.4
# CCN(CC)CCNC(=O)c1ccc(NC(=O)c2cccc(S(=O)(=O)N3CCc4ccccc43)c2)cc1 in the list: -1%, 13, 3.8, ., 0.67, 4.6, .
# Cc1ccc(C)c(Cn2nnc(C(=O)Nc3ccc4c(c3)OCCO4)c2N)c1 in the list: -7%, -4, 4.9, 0.4, 0.66, -1.3, 1.0
